# Six1-Eya2 inh = qHTS Assay for Inhibitors of the Six1/Eya2 Interaction | Homeobox protein SIX1 (Homo sapiens) + Protein phosphatase EYA2 (Homo sapiens), … | AlphaScreen GST-Six1/His-Eya2 binding, biochemical; active compounds read low; control for the full effect not named in the record | activity change, % (concentration not given with the values) | hit rate 0.56% among 360,000 | AID 651725, 2012; in the data active = activity change below about -65%; inconclusive = about -30% to -65%; inactive = above about -30%; note: % is set by controls: 0 for no effect and ±100 for the full control effect
#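 GST-Six1 + His-Eya2 (5X stock: 250/500 nM); Tris pH 8.0, 300 mM NaCl, 0.05% BSA, 0.02% Tween 20; GSH donor/Ni acceptor beads; 1 h 37 °C dark; AlphaScreen readout.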
# D2 ag = Beta-Arrestin HTS for Positive Allosteric Modulators of the Human D2 Dopamine Receptor: Agonists | D(2) dopamine receptor (Homo sapiens), P14416 | DiscoveRx PathHunter D2 beta-arrestin, luminescence, 90 min; 100% = 57 uM dopamine signal | activation, % (test concentration not listed) | hit rate 0.084% among 360,000; in the data active = activation above about 40%; inconclusive = about 15% to 40%; inactive = below about 15%; note: compound concentration not given in the record; the text of the record calls up to 30% inactive
# Target sequence (P14416 whole entry, looked up): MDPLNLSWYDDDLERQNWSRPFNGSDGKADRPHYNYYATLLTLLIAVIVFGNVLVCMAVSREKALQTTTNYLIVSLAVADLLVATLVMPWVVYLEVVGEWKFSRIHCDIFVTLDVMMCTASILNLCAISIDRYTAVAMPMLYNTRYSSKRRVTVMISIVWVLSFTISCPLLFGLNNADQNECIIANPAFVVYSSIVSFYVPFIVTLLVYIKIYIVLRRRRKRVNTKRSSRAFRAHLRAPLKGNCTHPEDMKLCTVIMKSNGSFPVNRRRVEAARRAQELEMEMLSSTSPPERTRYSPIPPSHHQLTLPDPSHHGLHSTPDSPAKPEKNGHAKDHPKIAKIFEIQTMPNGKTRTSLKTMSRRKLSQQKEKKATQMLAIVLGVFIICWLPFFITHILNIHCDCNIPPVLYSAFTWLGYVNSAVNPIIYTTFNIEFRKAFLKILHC
#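 Agonist mode: compounds alone added to overnight-plated D2 PathHunter cells for 90 min at 37 C, with 57 uM final dopamine (EC100) defining full response. Beta-arrestin recruitment detected by chemiluminescent reagent, read after 1 h at ambient temperature.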
# TRPML1 ag = qHTS for Agonists of the Human Mucolipin Transient Receptor Potential 1 (TRPML1); Mucolipin-1 (Homo sapiens), Q9GZU1; TRPML1-expressing cells, Ca2+ dye fluorescence, FDSS; host cell line not named in the record; reference of the full effect not given here; activation, % (no concentration beside the values); hit rate 0.12% among 410,000; in the data active = activation above about 50%; inconclusive = about 30% to 50%; inactive = below about 30%; note: 0% is about no effect; the text of the record puts the active cut at 80%
# Target sequence (Q9GZU1 whole entry, looked up): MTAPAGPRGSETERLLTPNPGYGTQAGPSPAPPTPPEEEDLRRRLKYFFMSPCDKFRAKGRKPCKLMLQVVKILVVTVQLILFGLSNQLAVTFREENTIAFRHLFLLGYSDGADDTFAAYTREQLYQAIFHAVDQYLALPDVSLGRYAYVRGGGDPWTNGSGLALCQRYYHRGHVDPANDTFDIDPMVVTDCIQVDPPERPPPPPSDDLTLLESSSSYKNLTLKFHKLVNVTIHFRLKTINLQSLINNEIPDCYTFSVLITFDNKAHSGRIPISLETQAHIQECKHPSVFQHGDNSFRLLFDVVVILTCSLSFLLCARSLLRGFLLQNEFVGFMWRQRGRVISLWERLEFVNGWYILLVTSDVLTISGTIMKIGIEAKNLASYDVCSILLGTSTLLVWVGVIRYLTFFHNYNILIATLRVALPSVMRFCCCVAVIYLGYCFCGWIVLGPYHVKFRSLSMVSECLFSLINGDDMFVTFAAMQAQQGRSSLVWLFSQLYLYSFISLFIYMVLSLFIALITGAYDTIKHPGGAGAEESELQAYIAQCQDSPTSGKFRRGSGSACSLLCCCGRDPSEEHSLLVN
#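 Calcium fluorescence on an FDSS kinetic reader gave the read-out. Tet-induced TRPML1-DL cells were plated overnight, dye-loaded (Ca8 with quencher, 45-90 min, room temperature, dark), then read 110 s after compound addition, and again 110 s after 4uM final 54-4 (EC80).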
# TRPML1 inh = qHTS for Inhibitors of the Human Mucolipin Transient Receptor Potential 1 (TRPML1); activity change, negative = inhibition, % (concentration not given with the values); TRPML1-inducible cells, Ca2+ dye fluorescence, FDSS; active compounds read low; inhibition of EC80 agonist-evoked calcium signal; hit rate 0.02% among 390,000; AID 624415, 2012; Mucolipin-1 (Homo sapiens), Q9GZU1; in the data active means activity change below about -50%; inconclusive means about -30% to -50%; inactive means above about -30%;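 note: stimulus is agonist 54-4 at its EC80 concentration; % is set by controls: 0 for no effect and ±100 for the full control effect; the text of the record puts the active cut at -80%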
#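 Calcium fluorescence in TRPML1-DL cells induced overnight with Tet: a 110 s read after compound pin addition, then a 110 s antagonist read after challenge with 54-4 at 4 uM final (EC80).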
# PINK1 modulator = A Quantitative High throughput Screen to Identify Chemical Modulators of PINK1 Expression; PINK1 immunofluorescence, high-content cytometry, 24 h; Potency, µM (series often up to 76.6 µM), without a hit: top-dose activation (PINK1 increase), most hits filed as activators; hit rate 0.2% among 410,000; active = well fitted activation curve with a large enough effect; inconclusive = small, poorly fitted or top-dose-only effect; inactive = flat fitted curve, though single readings scatter; cell line not stated here;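 note: potency is the fitted concentration of half-maximal effect; % of control where 0% means no effect; nearly all actives have a fitted effect of over 65% in size; a mitochondrial uncoupler was the plate control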
#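 Stable cell line treated 24 h with compounds at 5 concentrations (CCCP controls), then fixed and immunostained for PINK1 plus nuclear and cell stains; PINK1 immunofluorescence quantified by laser-scanning microplate cytometry.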
# D2 PAM = Beta-Arrestin HTS for Positive Allosteric Modulators of the Human D2 Dopamine Receptor: Potentiators | potentiation, % (no concentration beside the values) | hit rate 0.23% among 360,000 | DiscoveRx D2 beta-arrestin cells, luminescence, 90 min; 100% = 57 uM dopamine signal | D(2) dopamine receptor (Homo sapiens), P14416; active = potentiation of 50% or more; inconclusive = 30% to 50%; inactive = 30% or less;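 note: compound concentration not given in the record; tested on top of an EC20 dose of dopamine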
#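 PathHunter D2 cells, attached overnight at 37 deg C, received compound in DMSO plus dopamine at EC20 (50 nM final) for 90 min at 37 deg C. Beta-arrestin recruitment was read as luminescence after 1 h with detection reagent at ambient temperature.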
# The depositor's hits bear a star; u = inconclusive; x = not tested or not shown; & = joins results of further samples; [ ] = another dose, or the depositor's remark.
item	Structure	Six1-Eya2 inh	D2 ag	TRPML1 ag	TRPML1 inh	PINK1 modulator	D2 PAM
1	CC(CNC(=O)CCCn1c(=O)c2cccn2c2ccccc21)c1ccccc1 (stereo unspecified)	x	x	2.8	5	0.6%	x
2	O=C(/C=C/c1ccccc1)C1=C(O)C(=O)N(CCO)C1c1ccccc1[N+](=O)[O-] (stereo unspecified)	13	-6.8	0.3	21	-1.1%	-11
3	COCCCNC(=O)CCC(=O)NNc1nc2ccccc2c2nc(-c3ccccc3)nn12	-23	-2.9	0.3&-0.5	-3&-5	-1.8%&3.9%	-5
4	COc1ccc(C2CC(c3ccccc3Cl)Nc3ncnn32)cc1OC (stereo unspecified)	-3	-0.7	0.6	-6	-1.0%	-7
5	COc1ccc(NC(=O)c2cc(S(=O)(=O)N3CCOCC3)ccc2C)cc1S(=O)(=O)N1CCCCC1	-3	-0.1	-0.1	-3	-0.1%	5
6	COc1ccc(C(=O)Nc2ccc(OCc3cc(=O)n4ccccc4n3)cc2)cc1	x	x	-0.2	-20	0.1%	x
7	O=C(NCCN1C(=O)C2C3C=CC(C3)C2C1=O)Nc1ccccn1 (stereo unspecified)	2	-0.8	0.6	3	-0.2%	-2
8	CC(C)Oc1cccc(C(=O)NC(=S)Nc2cccnc2)c1	-20	-5.7	0.7	-19	-0.2%	-19
9	O=[N+]([O-])c1ccc(NN=Cc2ccccc2)nc1	0	6.4	1.0	-1	0.8%	-14
10	C#CCN1C=CC(=O)[C@@H](OC(=O)Nc2ccc(Br)cc2)[C@H]1c1ccccc1Br	0	1.2	0.1	8	-0.4%	1
11	CCn1c(-c2sc(-c3ccccc3)nc2C)n[nH]c1=S	0	8.3	1.7	-10	0.4%	-13
12	COc1ccccc1-c1nnc(-c2ccc(C)cc2)o1	-4	-1.0	3.4	4	-0.7%	-4
13	Cc1ccc(NC(=O)C2CCCN(c3ncccn3)C2)c(C)c1 (stereo unspecified)	-6	-4.8	-0.7	4	-0.7%	-6
14	Cc1ccc(S(=O)(=O)Nc2cc(C)cc(CCNC=O)c2C)cc1	-1	-5.1	-0.4	-2	3.2%	0
15	O=C(NCC1CCC(C(=O)O)CC1)c1cccnc1 (stereo unspecified)	2	-2.3	2.1	-3	28%[38.3 µM]	1
16	COc1ccc(C2/C(=C(/O)c3ccc(S(=O)(=O)N4CCOCC4)cc3)C(=O)C(=O)N2CCN2CCOCC2)cc1 (stereo unspecified)	9	-1.9	0.8	-5	-2.6%	-9
17	O=C(CCS(=O)(=O)c1ccc(Br)s1)NCc1ccc2c(c1)OCO2	0	-3.4	0.0	-11	2.0%[38.3 µM]	-12
18	COc1cccc(CC(=O)Nc2ccc(S(=O)(=O)Nc3nc(C)cc(C)n3)cc2)c1	-25	-0.9	-1.2	5	1.0%	-6
19	CCc1cccc(C)c1NC(=O)c1cc(S(=O)(=O)NCc2ccccc2Cl)ccc1F	x	x	1.7	-5	4.6%	x
20	Cc1noc(C)c1C(=O)Nc1ccccc1N1CCCC1	1	4.0	-0.1	-1	-1.6%	-3

# An excerpt from above in order of their number in Six1-Eya2 inh, high to low:
cpd	molecule	Six1-Eya2 inh	D2 ag	TRPML1 inh	PINK1 modulator	D2 PAM
20	Cc1noc(C)c1C(=O)Nc1ccccc1N1CCCC1	1	4.0	-1	-1.6%	-3
14	Cc1ccc(S(=O)(=O)Nc2cc(C)cc(CCNC=O)c2C)cc1	-1	-5.1	-2	3.2%	0
18	COc1cccc(CC(=O)Nc2ccc(S(=O)(=O)Nc3nc(C)cc(C)n3)cc2)c1	-25	-0.9	5	1.0%	-6

# (next part)
item	Structure	Six1-Eya2 inh	D2 ag	TRPML1 ag	TRPML1 inh	PINK1 modulator	D2 PAM
21	CC(CC(=O)Nc1nnc(CC(C)(C)C)s1)c1ccccc1 (stereo unspecified)	10	13	-0.7	0	4.1%	-2
22	O=C(c1cc2cc(F)ccc2[nH]1)N1CCC(Cc2ccccc2)CC1	-2	0.7	0.1	1	0.7%	8
23	N#CCC(=O)Nc1ccc(C(=O)NNC(=S)NC2CC2)cc1	7	-4.8	0.4	7	0.3%	-36
24	Cn1nc(C(=O)Nc2nc3ccc(S(C)(=O)=O)cc3s2)ccc1=O	0	-1.0	0.3	-7	-2.1%	-8
25	CN1CCN(S(=O)(=O)c2cccc(C(=O)Oc3cccc(C#N)c3)c2)CC1	-3	-1.5	-0.5	9	0.5%	-12
26	COC(=O)c1ccc(COc2ccccc2/C=C(\C#N)C(=O)NC(C)C)cc1	4	-5.6	-0.5	-5	2.9%	-5
27	COC(=O)c1sc(NC(=S)NC(=O)c2ccccc2F)nc1C	9	-0.1	0.0	3	2.9%	-4
28	COc1ccc(S(=O)(=O)N2CCCC2)cc1Br	4	-1.3	-0.7	32	-0.2%	-10
29	OC(c1ccccc1)c1nc(-c2ccc3c(c2)OCO3)cs1 (stereo unspecified)	-1	3.5	-0.6	x	5.7%	-1
30	CCC(=O)Nc1c2c(nn1-c1ccc(C)cc1C)CSC2	-1	-1.4	-0.4	-15	-1.0%[38.3 µM]	-7
31	CCOc1ccccc1NC(=O)CN(Cc1ccccc1)S(C)(=O)=O	-1	0.7	0.5	-8	-4.3%[38.3 µM]	2
32	O=C(COc1ccc2ccc(=O)oc2c1)Nc1cc([N+](=O)[O-])ccc1F	0	-2.9	-0.8	11	7.2%	-7
33	c1ccc(OCc2nnc3n2N=C(c2ccccc2)CS3)cc1	-2	-7.4	x	x	1.4%	-23
34	CCN(CC)C(=O)CSc1nc(O)c(Cc2ccc(OC)cc2)c(=O)[nH]1	-1	-5.1	0.2	-15	6.1%	-4
35	O=C(COc1ccc(Br)cc1)NC1CC1	2	-3.8	0.0	7	-1.1%	-13
36	c1ccc(SCc2cn3cccnc3n2)nc1	2	1.4	0.3	18	-0.1%	-8
37	CCCc1ncc(CN2CCC(C(=O)Nc3cccc(-c4cscn4)c3)CC2)cn1	-3	-2.1	0.8	u	0.0%	-32
38	CN(CC(=O)NC1CCCC1)S(=O)(=O)c1cnc[nH]1	1	-1.7	-0.2	-9	2.3%	-10
39	CCCn1c(=O)c2sccc2n2c(CCCC(=O)Nc3ccc(C)c(F)c3)nnc12	x	x	0.3	2	0.1%	x
40	COC(=O)c1ccc(-n2nnnc2SCC(=O)Nc2cc(OC)ccc2OC)cc1	-1	2.1	1.5	33	x	1
41	COCC(C)n1c(SCC(=O)Nc2sccc2C(N)=O)nc2ccccc2c1=O (stereo unspecified)	1	4.5	0.5	11	6.9%	5
42	N#CC1=C(N)SC(N)=C(C#N)C1c1ccc([N+](=O)[O-])cc1	-8	-0.4	0.1	-8	0.2%	-15
43	Cc1cccc(Nc2ccccc2C(=O)OCC(=O)N2CCOCC2)c1C	11	-1.0	0.9	3	0.3%	-10
44	Cn1nc(-c2ccccc2F)c2cc(C(=O)NCc3ccccc3Cl)sc21	x	x	2.1	30	-0.1%	x
45	COc1ccc(/C=C/C(=O)OCc2nc3ccccc3c(=O)[nH]2)c(OC)c1	5	-3.3	0.0	-1	4.6%	-3
46	O=C1COc2ccc(C(=O)COC(=O)CNS(=O)(=O)c3cccc(F)c3)cc2N1	4	-2.6	-0.3	-9	0.5%	-1
47	Cc1ccc(C(=O)Nc2nc(C)c(C(=O)Nc3ccc4c(c3)CCC4)s2)cc1	-4	1.0	0.5	-5	11%	-7
48	CCc1cc2c(=O)c(-n3cnc4ccccc43)coc2cc1O	8	-2.6	1.3	13	0.3%	-1
49	OC(C#CCN1CCCCC1)(c1ccccc1)c1ccccc1	-5	1.3	-0.6	6	1.1%	-23
50	Cc1c(NC(=O)CSc2nc3ccccc3s2)c(=O)n(-c2ccccc2)n1C	1	0.0	-1.2	-11	-1.6%	-4
51	Cc1ccc(C2=C(O)C(=O)C(c3ccc(C)cc3)=C(O)C2=O)cc1	-4	-1.9	0.2	11	u	-21
52	COC(=O)c1cccc(C(=O)Nc2ccc(C)cc2Br)n1	0	-1.8	0.0	-1	4.6%	7
53	CC(=O)OCC1=C(C(=O)O)N2C(=O)C(NC(=O)CC(C)c3ccccc3)C2SC1 (stereo unspecified)	2	-1.8	0.8	-3	-0.5%	-3
54	CCN(C(=O)COC(=O)CCC1CCCC1)c1c(N)n(Cc2ccccc2)c(=O)[nH]c1=O	-5	-4.6	-0.4	-3	1.7%	-8
55	O=C(c1ccc(Cl)c(S(=O)(=O)N2CCCCCC2)c1)N1CCCC1	8	-1.6	0.2	3	-1.1%	-7
56	CCOc1ccc(S(=O)(=O)N2CCC(C(=O)NCC3CCCO3)CC2)cc1C (stereo unspecified)	3	-2.0	1.7	-8	2.7%	-2
57	Cc1cc(NC(=O)CSc2nnc(C)c(=O)[nH]2)no1	6	-1.8	-0.4	8	-0.2%	0
58	Cc1cc(/C=N/NC(=O)c2ccc(O)cc2)c(C)n1C1CC1	u	3.4	2.7	-8	0.5%	1
59	COc1ccc(CCNC/C=C/c2ccccc2)cc1	2	-4.0	-0.6	3	15%	-5
60	COc1ccc(CNC(=O)C[C@H]2C[C@H](C(=O)N3CCOCC3)[C@@]3(CCC4CCCC4)c4[nH]c5cc(CCC(=O)N(C)C)ccc5c4CCN3C2=O)cc1OC	-4	-1.3	-0.5	6	3.4%	x
61	COc1ccc(-c2nnn(CC(=O)N(CC(=O)NC3CCCC3)c3ccccc3F)n2)cc1OC	6	-0.6	0.0	-3	2.4%	-2
62	CCOC(=O)c1c(S(=O)(=O)NCC(=O)N2CCN(c3cc(C)ccc3C)CC2)c(C)n(C)c1C	x	x	0.2	-1	4.2%	x
63	OC(CN1CCN(Cc2ccccc2)CC1)c1ccc(F)cc1 (stereo unspecified)	-1	-7.7	-0.3	-1	4.2%	-13
64	Cc1cc(C(=O)NCc2cccs2)c(C)o1	-2	-3.7	-0.1	-17	3.3%[38.3 µM]	-21

# An excerpt of these results, with each value named.
[61] COc1ccc(-c2nnn(CC(=O)N(CC(=O)NC3CCCC3)c3ccccc3F)n2)cc1OC
  Six1-Eya2 inh: 6	D2 ag: -0.6	TRPML1 ag: 0.0	TRPML1 inh: -3	PINK1 modulator: 2.4%	D2 PAM: -2

[62] CCOC(=O)c1c(S(=O)(=O)NCC(=O)N2CCN(c3cc(C)ccc3C)CC2)c(C)n(C)c1C
  Six1-Eya2 inh: x	D2 ag: x	TRPML1 ag: 0.2	TRPML1 inh: -1	PINK1 modulator: 4.2%	D2 PAM: x

[63] OC(CN1CCN(Cc2ccccc2)CC1)c1ccc(F)cc1 (stereo unspecified)
  Six1-Eya2 inh: -1	D2 ag: -7.7	TRPML1 ag: -0.3	TRPML1 inh: -1	PINK1 modulator: 4.2%	D2 PAM: -13

[64] Cc1cc(C(=O)NCc2cccs2)c(C)o1
  Six1-Eya2 inh: -2	D2 ag: -3.7	TRPML1 ag: -0.1	TRPML1 inh: -17	PINK1 modulator: 3.3%[38.3 µM]	D2 PAM: -21
